Compound activity from PubChem BioAssay.
Menin MLL FP FL – menin-MLL binding inhibition, fluorescein peptide. Fluorescence polarization, fluorescein-MLL peptide displacement from menin. 290,000 tested, under 10 active. FP activity change, % at 61.4 µM; inconclusive = falling polarisation curve, or a change in total fluorescence; inactive = total fluorescence flat and polarisation flat or rising; no compound was filed as active; the % refers to the polarisation; negative = inhibition;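 further: % of control where 0% means no effect; inhibitors lower the polarisation; unlabelled MLL peptide was the positive control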
gsp antag – gsp mutant antagonism; gsp-mutant cells, cAMP HTRF, 30 min; control for the full effect not named in the record; Potency, µM (titrated, usually from 76.9 µM), for the others: at the highest dose activity change, negative = inhibition, actives largely listed as inhibitors; 340,000 tested, 0.4% active; active = falling curve of any shape with a large fitted effect; inconclusive = falling curve, mostly with a smaller effect; inactive = flat or rising curve; cell line not stated here;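 further: intracellular cAMP measured with PDE inhibitor Ro 20-1724 present during compound exposure; potency means the concentration at half of the fitted maximal effect; on the % scale 0 is the no-effect control and ±100 the full control effect; nearly all actives have a fitted effect of over 65% in size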
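Cells in G418 medium, seeded 16-24 h, 37C; buffer exchange to DPBS + 1 mM CaCl2, 0.5 mM MgCl2, 0.05% BSA; cpds in DMSO + […] (300 uM stock), 30 min 37C; HTRF cAMP detection.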
D2 ag – activates the human D2 dopamine receptor. AID 624465. 360,000 tested, 0.084% active. activation, % (no concentration beside the values). DiscoveRx PathHunter D2 beta-arrestin, luminescence, 90 min; 100% = 57 uM dopamine signal; in the data active = activation above about 40%; inconclusive = about 15% to 40%; inactive = below about 15%; further: compound concentration not given in the record; the text of the record calls up to 30% inactive
Target sequence (P14416 whole entry, looked up): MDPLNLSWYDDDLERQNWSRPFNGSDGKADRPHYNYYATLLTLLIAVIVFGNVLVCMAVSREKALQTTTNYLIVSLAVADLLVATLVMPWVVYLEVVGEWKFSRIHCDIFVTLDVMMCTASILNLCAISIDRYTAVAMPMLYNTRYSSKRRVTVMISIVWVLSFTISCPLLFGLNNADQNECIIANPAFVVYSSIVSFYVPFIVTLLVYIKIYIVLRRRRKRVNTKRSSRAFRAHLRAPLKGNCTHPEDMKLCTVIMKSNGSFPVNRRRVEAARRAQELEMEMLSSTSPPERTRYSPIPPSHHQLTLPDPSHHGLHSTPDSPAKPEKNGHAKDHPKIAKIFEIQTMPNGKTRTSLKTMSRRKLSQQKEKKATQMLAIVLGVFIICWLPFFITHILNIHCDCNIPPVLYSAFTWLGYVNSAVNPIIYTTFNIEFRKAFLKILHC
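Agonist mode: compounds alone added to overnight-plated D2 PathHunter cells for 90 min at 37 C, with 57 uM final dopamine (EC100) defining full response. Beta-arrestin recruitment detected by chemiluminescent reagent, read after 1 h at ambient temperature.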
PINK1 modulator – changes PINK1 expression; 410,000 tested, 0.2% active; PINK1 immunofluorescence, high-content cytometry, 24 h; Potency, µM (titrated, usually from 76.6 µM), inactives show at the highest dose activation (PINK1 increase), actives largely listed as activators; active = well fitted activation curve with a large enough effect; inconclusive = small, poorly fitted or top-dose-only effect; inactive = flat fitted curve, though single readings scatter; cell line not stated here;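 further: potency means the concentration at half of the fitted maximal effect; % of control where 0% means no effect; nearly all actives have a fitted effect of over 65% in size; a mitochondrial uncoupler was the plate control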
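Stable cell line treated 24 h with compounds at 5 concentrations (CCCP controls), then fixed and immunostained for PINK1 plus nuclear and cell stains; PINK1 immunofluorescence quantified by laser-scanning microplate cytometry.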
ClpP mod – qHTS Assay for Activators of ClpP; ATP-dependent Clp protease proteolytic subunit (Bacillus subtilis (strain 168)), P80244; purified B. subtilis ClpP, FRET peptide cleavage, 20 min; Potency, µM (highest dose often 57.5 µM), without a hit: at the highest dose activity change, negative = active; 340,000 tested, 1.9% active; AID 651965, 2013; active = well fitted falling curve with a large enough effect; inconclusive = small, poorly fitted or top-dose-only effect; inactive = no such curve, though single readings can be large or run the other way; further: potency means the concentration at half of the fitted maximal effect; the source files actives as falling curves though it sought activators and does not explain the sign; nearly all actives have a fitted effect of over 65% in size; many hits overshoot -100%
Target sequence (P80244 whole entry, looked up): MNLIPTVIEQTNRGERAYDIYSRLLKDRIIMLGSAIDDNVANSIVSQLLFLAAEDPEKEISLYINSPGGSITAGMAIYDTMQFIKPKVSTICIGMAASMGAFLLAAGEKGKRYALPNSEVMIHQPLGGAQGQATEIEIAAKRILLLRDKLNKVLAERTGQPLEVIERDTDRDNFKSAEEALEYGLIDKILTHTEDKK
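ClpP 10 microg/mL final, pH 8 Tris/KCl buffer with BSA, glycerol, Tween-20; compound pinned in; FRET-FV substrate; RT 20 min; Ex320/Em430; ΔFRET vs ADEP 5.8 microM, DMSO, no enzyme.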
Sfp inh – inhibitors of Bacillus subtilis Sfp phosphopantetheinyl transferase; Q9F4F7; 310,000 tested, 3.5% active; Biochemical Sfp PPTase activity, qHTS; Potency, µM, inactives show max response, negative = inhibition, usual class: inhibitors; active means well fitted inhibition curve with a large enough effect; inconclusive means small, poorly fitted or top-dose-only effect, or another doubt; inactive means no such curve, though single readings can be large or run the other way;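 further: the enzyme is Sfp with the accession as filed and its product quenches rhodamine fluorescence; potency means the concentration at half of the fitted maximal effect; 0% = enzyme reaction without inhibitor and -100% = no enzyme wells; top concentration of the series not given in the record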
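Fluorescence-quenching assay with 15 nM Sfp, 5 uM rhodamine-CoA and 12.5 uM BHQ-2-labelled ybbR peptide in pH 7.6 Hepes/MgCl2 buffer. Enzyme was pre-incubated with compound for 15 min at room temperature. Rate was taken from the 30-min fluorescence change (525/598 nm).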
gsp ag – activates gsp, the McCune-Albright syndrome mutation; gsp mutant cells, cAMP HTRF, 30 min; control for the full effect not named in the record; Potency, µM (series often up to 76.9 µM), without a hit: at the highest dose activation (cAMP increase), hits mostly activators; 340,000 tested, 0.13% active; active = well fitted activation curve with a large enough effect; inconclusive = small, poorly fitted or top-dose-only effect, or another doubt; inactive = no such curve, though single readings can be large or run the other way; cell line not stated here;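 further: phosphodiesterase inhibitor Ro 20-1724 added with compounds to block cAMP breakdown; potency means the concentration at half of the fitted maximal effect; nearly all actives have a fitted effect of over 60% in size; about a fifth of the inactives were tested at one dose only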
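Cells in DMEM/10% FBS with G418 were pretreated with compounds in DMSO plus […] (300 uM stock) for 30 min at 37C. cAMP was measured by HTRF (cAMP-d2 plus anti-cAMP antibody-K) after 30 min at room temperature.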
Active calls of the source: *; u = inconclusive; x = no result given; [ ] = dose if it differs, or a comment.

mol,Menin MLL FP FL,gsp antag,D2 ag,PINK1 modulator,ClpP mod,Sfp inh,gsp ag
N#CCCN1CCN(S(=O)(=O)c2ccc(S(=O)(=O)N3CCCC3)cc2)CC1,-0.1,4%,-4.5,0.5%,0.9%,29%,u
CC1(C(=O)O)CCC(C(=O)NNC(=O)c2ccccc2Cl)C1(C)C (configuration not stated),x,6%,-3.8,-0.4%,x,x,16%[15.4 µM]
CCC(=O)Nc1ccc(NC(=O)CSc2nnnn2-c2ccc(OC)cc2)cc1,-3.6,4%,0.6,10%,-1.3%,3%,24%
CCOC(=O)CSc1nc2c(c(=O)[nH]c(=O)n2C)n1CCc1ccccc1,-1.5,-4%,-0.9,1.2%,1.1%,4%,-39%
COCCn1cnc2c1c(=O)n(CC(=O)Nc1cc(C)on1)c(=O)n2Cc1ccccc1,0.8,-1%,-1.1,-1.8%,-1.1%,9%,-2%
CC(=C\C(=O)O)/C(=C/c1ccc(C)o1)C(=O)O,2.5,-4%,-3.3,1.2%,1.5%,4.5µM*,-7%[15.4 µM]
CS(=O)(=O)N(CC(=O)N1CCCC1)c1ccc(Cl)cc1,-1.5,11%,0.5,-1.1%,x,7%,-11%
NC(=S)N/N=C/c1ccccc1[N+](=O)[O-],0.6,-7%,0.0,-0.8%,x,4.5µM*,-1%[15.4 µM]
O=c1/c(=C/c2ccco2)sc2n1CN(c1cccc(Br)c1)CN=2,-2.6,-21%,-0.8,9.6%,-2.6%,2%,-5%
O=C(Nc1nnc(C(F)(F)F)s1)c1c(F)cccc1F,-1.3,-14%,1.5,5.4%,-1.3%,29%,u
CN(C)/C=N/c1ncc(C(=O)c2ccc3ccccc3c2)s1,3.3,-9%,0.4,-4.3%[38.3 µM],-7.3%,15%,-1%
CCCN1CCC(=NNc2ccc(S(N)(=O)=O)cc2[N+](=O)[O-])CC1,-4.6,8%,-2.1,1.6%,14µM*,6%,-6%[15.4 µM]
Cc1ccc2cc(C=O)c(N3CCOCC3)nc2c1C,1.3,-22%,13,5.1%,-2.2%,2%,-1%[15.4 µM]
COc1ccc(OC)c2sc(NC(=O)CCSc3ccccc3)nc12,-3.2,4%,-1.3,7.7%,u,12%,5%
COc1ccc(-n2c(NN)nc3sc4c(c3c2=O)CCCC4)cc1,-0.9,-21%,0.2,8.0%,x,16%,u
CCOC(=O)C(NC(=O)c1ccc(OC)cc1)(N1CCOCC1)C(F)(F)F (configuration not stated),-2.0,5%,-0.2,1.9%[38.3 µM],-1.9%,16%,16%
CCc1nc(Nc2ccccc2O)c2oc3ccccc3c2n1,-8.3,4%,-1.1,3.5%,x,-18%,-5%
CC(C)C(=O)Nc1nnc(SCC(=O)NCc2ccco2)s1,2.4,12%,-6.3,0.2%,0.8%,-5%,1%[15.4 µM]
Cc1cccc(C)c1NC(=O)N1C(C(=O)O)CSC1C(=O)O (configuration not stated),-2.2,11%,-2.3,-6.3%,-2.6%,-10%,17%
COc1ccc(CNC(c2ccccc2)c2ccc(Cl)cc2)cc1 (configuration not stated),-0.3,-8%,-3.3,0.7%,x,u,13%[15.4 µM]
CCOC(=O)c1cn(CC)c2cc3c(cc2c1=O)OCO3,x,1%,-1.5,-0.4%,4.3%,x,x
CC1CCC(NC(=O)CN2C(=O)NC3(CCCCC3C)C2=O)CC1 (configuration not stated),x,7%,2.6,-1.2%,-1.0%,x,-11%
CC(=O)Oc1ccccc1C(=O)N1CCN(S(=O)(=O)c2ccc3ccccc3c2)CC1,0.5,-8%,-4.0,-0.3%,-7.0%,6%,5%
CC(C)c1cc(C(=O)NNC(=S)NC2CCCCC2)cs1,x,6%,-10,-0.7%,-1.9%,19%,7%
O=C(Nc1cc(Cl)ccc1O)C1CC(c2c(F)cccc2Cl)=NO1 (configuration not stated),-3.1,0%,7.2,4.0%,0.8%,0%,-12%[15.4 µM]
COC(=O)c1cc(C(=O)N2CCN(c3ccccc3OC)CC2)cc([N+](=O)[O-])c1,1.0,20%,-0.6,11%,x,1%,-8%[15.4 µM]
CC(C)CCN(Cc1ccco1)S(=O)(=O)c1csc(C(N)=O)c1,-4.3,5%,-2.8,1.2%,1.2%,-8%,-7%
Cc1ccc2c(c1)C1(C)C(C(C)(C)N2C=O)C1(Cl)Cl (configuration not stated),1.9,10%,-5.0,2.8%,-0.3%,14%,-7%
Cn1cccc1/C=N/NC(=O)c1cc2ccccc2cc1O,21,-13%,-3.7,1.5%,x,8%,0%[15.4 µM]
COc1ccc(Cl)cc1NS(=O)(=O)c1ccc2c(c1)NC(=O)CCS2,0.0,-8%,3.9,-0.2%,0.1%,0%,0%
CC(Oc1ccc(Cl)cc1)C(=O)NCCCn1ccnc1 (configuration not stated),1.4,2%,0.2,-3.2%[38.3 µM],-0.8%,-3%,-11%
COCCNC(=O)c1cc(-c2ccccc2)n(CC2CC(c3ccc(OC)cc3)=NO2)n1 (configuration not stated),x,-15%,1.7,6.3%,0.6%,x,23%
CC(C)CC(COCc1cccc(Cl)c1)N1CCN(C(=O)c2ccc(C(F)(F)F)cc2)CCC1=O (configuration not stated),-0.5,-9%,1.4,28%,0.1%,14%,18%
C=CCC[C@@H](Cc1ccc(F)cc1)C(=O)OC[C@H](Cc1c[nH]c2ccccc12)NC(=O)[C@@H](CC=C)CC(=O)N(CCO)Cc1ccccc1,x,-19%,-3.1,1.5%,-2.5%,x,-37%[inhibitor]
CN1CCN(c2ncnc3c2[nH]c2ccc(F)cc23)CC1,0.0,2%,-2.2,0.0%,28µM*,2%,14%
CC(C)OC(=O)C1C(=O)CC(C)(O)C(C(=O)OC(C)C)C1c1ccc(F)cc1 (configuration not stated),1.0,-1%,-1.2,u,-2.1%,10%,0%
Cc1ccc(C(=O)C2=C(O)C(=O)N(Cc3cccnc3)C2c2ccc(Cl)c(Cl)c2)o1 (configuration not stated),-5.4,9%,-1.8,-0.8%,-4.7%,-11%,u
N#CC1=C(N)N(c2ccc(Cl)c(Cl)c2)C(=O)C1,-0.6,1%,-2.1,2.2%,x,10%,5%
CN(CC(=O)Nc1cccc2ccccc12)C(=O)/C=C/c1cccs1,5.2,-7%,4.9,2.1%,-14%,17%,4%
COC(=O)c1cccc(C(=O)N2CCCC(C(=O)c3cc(F)ccc3F)C2)c1 (configuration not stated),2.3,-6%,4.9,-0.8%,x,14%,-1%[15.4 µM]
CC1C/C(=N/NC(=O)c2cccc(F)c2)c2ccc(O)cc2C1 (configuration not stated),-0.9,0%,-3.8,6.7%[38.3 µM],-0.5%,15%,-4%
COc1ccc(S(=O)(=O)N2CCN(CC(O)COc3ccc(C#N)cc3)CC2)cc1OC (configuration not stated),x,0%,-2.8,0.2%,x,14%,-2%[15.4 µM]
O=C(CN1C(=O)NC(CCc2ccccc2)C1=O)NC1CC1 (configuration not stated),1.6,3%,-2.7,1.1%,x,21%,19%[15.4 µM]
O=C(C[n+]1cccc(/C=N/O)c1)N1CCCCCC1,-6.4,10%,3.6,1.8%,x,19%,-7%[15.4 µM]
CCOc1ccc(CNC(=O)c2cccc(NC(=O)C3=C(C)OCCS3)c2)cc1,x,3%,13,-0.2%,0.4%,11%,7%
O=C(NCCc1nnc2ccc(NCCCN3CCOCC3)nn12)c1ccccc1,x,12%,-3.4,1.0%,-9.9%,0%,1%[15.4 µM]
CC(=O)Nc1ccc(S(=O)(=O)N2CCCC(C(=O)O)C2)cc1 (configuration not stated),1.3,x,-4.2,0.6%,x,0%,6%[15.4 µM]
Cc1cnc(CNc2ncnc3ccc(-c4c(C)noc4C)cc23)cn1,-5.9,x,x,0.9%,x,8%,x
COc1ccccc1-n1c(=O)c2c3c(sc2n2c(SC(C)C)nnc12)CCC3,-1.1,-18%,-4.0,0.5%,0.6%,-5%,-13%
COc1cc(/C=N/NC(=O)c2ccc(COc3ccccc3Cl)o2)cc(Br)c1O,7.1,-8%,0.1,8.7%,-0.8%,-6%,-28%

Next section
mol,Menin MLL FP FL,gsp antag,D2 ag,PINK1 modulator,ClpP mod,Sfp inh,gsp ag
CCN(CC)C(=O)C1=C(C)N(Cc2ccccc2)C(=O)C(CC(=O)NCCc2ccccn2)C1 (configuration not stated),x,x,-7.4,0.0%,1.0%,x,-24%
COCCOc1cc(N2C(=O)CSCC2=O)c(Cl)cc1Cl,0.0,-5%,-0.4,19%[38.3 µM],-0.3%,20%,-10%
Cc1ccc(NC(=O)C2c3ccccc3-c3ccccc32)cc1,x,x,-3.8,7.9%,u,x,x
CCN(CCCNC(=O)c1c(C)cc(=O)oc1C)c1cccc(C)c1,0.2,2%,-1.7,2.8%[38.3 µM],-0.2%,-22%,13%
O=C(/C(=N\Nc1ccccc1)Sc1nnnn1-c1ccccc1)c1ccccc1,2.2,-17%,-4.2,-1.6%,2.8%,1%,18%
O=C(/C=C/Nc1ccccc1C(F)(F)F)c1ccco1,1.7,8%,-1.2,1.4%,x,1%,-17%[15.4 µM]
O=C(c1ccc(OC2CCN(CCc3ccccc3)CC2)cc1)N1CCC(CO)CC1,-4.6,15%,-0.7,-0.9%,0.5%,13%,-21%
